gsp ag: qHTS for Agonist of gsp, the Etiologic Mutation Responsible for Fibrous Dysplasia/McCune-Albright Syndrome: qHTS; gsp mutant cells, cAMP HTRF, 30 min; control for the full effect not named in the record; Potency, µM (highest dose often 76.9 µM), without a hit: at the top dose activation (cAMP increase), most hits filed as activators; hit rate 0.13% among 340,000; active = well fitted activation curve with a large enough effect; inconclusive = small, poorly fitted or top-dose-only effect, or another doubt; inactive = no such curve, though single readings can be large or run the other way; cell line not stated here;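 note: phosphodiesterase inhibitor Ro 20-1724 added with compounds to block cAMP breakdown; potency is the fitted concentration of half-maximal effect; nearly all actives have a fitted effect of over 60% in size; about a fifth of the inactives were tested at one dose only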
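Cells stably selected in G418 were plated at 2000/well, grown 16-24 hr, then given compounds in DMSO with the PDE inhibitor […] (300 uM solution added) for 30 min at 37C; cAMP was read by HTRF.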
ClpP mod: qHTS Assay for Activators of ClpP; ATP-dependent Clp protease proteolytic subunit (Bacillus subtilis (strain 168)), P80244; purified B. subtilis ClpP, FRET peptide cleavage, 20 min; Potency, µM (top dose mostly 57.5 µM), for inactives: at the top dose activity change, negative = active; hit rate 1.9% among 340,000; active = well fitted falling curve with a large enough effect; inconclusive = small, poorly fitted or top-dose-only effect; inactive = no such curve, though single readings can be large or run the other way; note: potency is the fitted concentration of half-maximal effect; the source files actives as falling curves though it sought activators and does not explain the sign; nearly all actives have a fitted effect of over 65% in size; many hits overshoot -100%
Target sequence (P80244 whole entry, looked up): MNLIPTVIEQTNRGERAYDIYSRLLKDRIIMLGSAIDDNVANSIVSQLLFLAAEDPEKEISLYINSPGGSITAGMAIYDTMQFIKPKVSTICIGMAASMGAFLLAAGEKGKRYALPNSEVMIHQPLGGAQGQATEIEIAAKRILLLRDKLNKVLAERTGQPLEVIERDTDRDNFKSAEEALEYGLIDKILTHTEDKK
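Purified B. subtilis ClpP, 10 microg/mL final in Tris/HCl pH8 with KCl, BSA, glycerol and Tween-20, cleaved an Abz/nitrotyrosine-quenched decapeptide. Fluorescence (ex 320, em 430) was read at 0 and 20 min at room temperature. Delta was normalized to 5.8 microM ADEP and DMSO/no-enzyme controls.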
gsp antagonist: qHTS for Antagonists of gsp, the Etiologic Mutation Responsible for Fibrous Dysplasia/McCune-Albright Syndrome: qHTS; hit rate 0.4% among 340,000; gsp-mutant cells, cAMP HTRF, 30 min; control for the full effect not named in the record; Potency, µM (top dose mostly 76.9 µM), for inactives: at the highest dose activity change, negative = inhibition, hits mostly inhibitors; AID 624288, 2012; active = falling curve of any shape with a large fitted effect; inconclusive = falling curve, mostly with a smaller effect; inactive = flat or rising curve; cell line not stated here;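 note: intracellular cAMP measured with PDE inhibitor Ro 20-1724 present during compound exposure; potency is the fitted concentration of half-maximal effect; % is set by controls: 0 for no effect and ±100 for the full control effect; nearly all actives have a fitted effect of over 65% in size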
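HTRF cAMP measurement after 30 min RT detection following 30 min, 37C compound treatment alongside […] (added as 300 uM solution) in G418-selected cells seeded at 2000/well and grown 16–24 h.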
Menin MLL FP FL: qHTS Assay for Inhibitors Targeting the Menin-MLL Interaction in MLL Related Leukemias: Competition With Fluorescein Labeled MLL-derived Peptide; AID 1766, 2009; FP activity change, % at 61.4 µM; 290,000 tested, under 10 active; Fluorescence polarization, fluorescein-MLL peptide displacement from menin; inconclusive = falling polarisation curve, or a change in total fluorescence; inactive = total fluorescence flat and polarisation flat or rising; no compound was filed as active; the % refers to the polarisation; negative = inhibition;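 note: % of control where 0% means no effect; inhibitors lower the polarisation; unlabelled MLL peptide was the positive control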
PINK1 modulator: A Quantitative High throughput Screen to Identify Chemical Modulators of PINK1 Expression; PINK1 immunofluorescence, high-content cytometry, 24 h; Potency, µM (doses to about 76.6 µM), for the others: at the top dose activation (PINK1 increase), usual class: activators; hit rate 0.2% among 410,000; active = well fitted activation curve with a large enough effect; inconclusive = small, poorly fitted or top-dose-only effect; inactive = flat fitted curve, though single readings scatter; cell line not stated here;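 note: potency is the fitted concentration of half-maximal effect; % of control where 0% means no effect; nearly all actives have a fitted effect of over 65% in size; a mitochondrial uncoupler was the plate control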
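Measures PINK1 amount and localization on or inside mitochondria by immunofluorescence. Stable cells get compounds at 5 concentrations for 24 hours before fixation and staining; CCCP controls included.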
D2 ag: Beta-Arrestin HTS for Positive Allosteric Modulators of the Human D2 Dopamine Receptor: Agonists; D(2) dopamine receptor (Homo sapiens), P14416; DiscoveRx PathHunter D2 beta-arrestin, luminescence, 90 min; 100% = 57 uM dopamine signal; activation, % (no concentration beside the values); hit rate 0.084% among 360,000; in the data active = activation above about 40%; inconclusive = about 15% to 40%; inactive = below about 15%; note: compound concentration not given in the record; the text of the record calls up to 30% inactive
Target sequence (P14416 whole entry, looked up): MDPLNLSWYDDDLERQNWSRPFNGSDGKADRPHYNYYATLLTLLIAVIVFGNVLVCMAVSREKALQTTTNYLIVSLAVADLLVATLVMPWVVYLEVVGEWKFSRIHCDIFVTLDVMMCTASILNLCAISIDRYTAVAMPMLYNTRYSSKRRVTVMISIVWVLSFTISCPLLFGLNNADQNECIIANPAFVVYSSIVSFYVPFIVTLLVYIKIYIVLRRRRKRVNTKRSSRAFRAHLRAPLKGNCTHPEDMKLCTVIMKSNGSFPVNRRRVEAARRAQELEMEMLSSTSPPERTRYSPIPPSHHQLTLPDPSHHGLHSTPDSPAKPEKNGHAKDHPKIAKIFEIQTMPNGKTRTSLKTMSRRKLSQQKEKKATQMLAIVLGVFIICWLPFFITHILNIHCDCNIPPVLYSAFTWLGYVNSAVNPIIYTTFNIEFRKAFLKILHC
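Agonist mode: compounds alone added to overnight-plated D2 PathHunter cells for 90 min at 37 C, with 57 uM final dopamine (EC100) defining full response. Beta-arrestin recruitment detected by chemiluminescent reagent, read after 1 h at ambient temperature.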
Sfp inh: qHTS Assay for Inhibitors of Bacillus subtilis Sfp phosphopantetheinyl transferase (PPTase) | 4'-phosphopantetheinyl transferase ffp (Bacillus subtilis), Q9F4F7 | Biochemical Sfp PPTase activity, qHTS | Potency, µM, for the others: max response, negative = inhibition, actives largely listed as inhibitors | hit rate 3.5% among 310,000 | AID 1490, 2009; active = well fitted inhibition curve with a large enough effect; inconclusive = small, poorly fitted or top-dose-only effect, or another doubt; inactive = no such curve, though single readings can be large or run the other way;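 note: the enzyme is Sfp with the accession as filed and its product quenches rhodamine fluorescence; potency is the fitted concentration of half-maximal effect; 0% = enzyme reaction without inhibitor and -100% = no enzyme wells; top concentration of the series not given in the record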
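Reaction rates are the 30-min fluorescence difference (ex 525, em 598 nm) in wells containing 15 nM Sfp, 5 uM rhodamine-CoA and 12.5 uM BHQ-2-YbbR at pH 7.6 with 10 mM MgCl2.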
Active calls of the source: *; u = inconclusive; x = no result given; [ ] = dose if it differs, or a comment. Rows were taken by chance, and some 5.1% of all compounds hit somewhere here.

SMILES | gsp ag | ClpP mod | gsp antagonist | Menin MLL FP FL | PINK1 modulator | D2 ag | Sfp inh
CCOC(=O)C1CCCN(C(=O)C2CCC(CNS(=O)(=O)c3ccc(NC(C)=O)cc3)CC2)C1 (stereo unspecified) | -25% | 0.9% | -2% | -0.1 | -2.6% | -0.2 | 25%
N#CC1C(C#N)N2CCCN2C1c1ccc(Br)cc1 (stereo unspecified) | 36%[15.4 µM] | 0.0% | -9% | 0.7 | 0.9% | -5.2 | -8%
S=C(Nc1ccccc1Cl)N1CCC(c2ccccc2)C1 (stereo unspecified) | 0%[15.4 µM] | x | 8% | -4.5 | 2.5% | -4.5 | 13%
CCOC(=O)CC1C(=O)NCCN1c1nc2c(C)cccn2c(=O)c1/C=C1\SC(=S)N(C(C)CC)C1=O (stereo unspecified) | 11%[15.4 µM] | x | u | u | -2.1% | -4.7 | 7%
CC1=NN(C(=O)Cn2ccc([N+](=O)[O-])n2)C(O)(C(F)(F)F)C1 (stereo unspecified) | u | 0.9% | 9% | 0.2 | 3.2% | -4.2 | 9%
COc1ccc(N2CCN(C(CNC(=O)C(C)(C)C)c3ccco3)CC2)cc1 (stereo unspecified) | u | -0.3% | 10% | 2.0 | 2.6% | -3.5 | 6%
CCCNC(=O)C1(C)CCCN(Cc2ccsc2)C1 (stereo unspecified) | x | 0.8% | x | x | 1.4% | -2.7 | x
O=C(OCCN1C(=O)c2ccccc2C1=O)c1ccco1 | -31%[inhibitor] | -0.4% | -8% | 4.1 | -0.8% | -0.5 | 28%
CC(C)Cc1nnc(NC(=O)CCC(=O)NC2CCCc3ccccc32)s1 (stereo unspecified) | 9% | 0.7% | 17% | 9.0 | 0.9% | -1.6 | 4%
O=C(CN1C(=O)NC2(CCCC2)C1=O)N1CCN(c2ccccc2Cl)CC1 | -18% | 1.0% | 17% | x | 1.3% | -5.3 | x
COc1ccc(CN2CCOCC2)c(C)c1C | -46%[inhibitor] | -0.8% | -17% | 2.2 | 5.1%[38.3 µM] | 0.9 | 9%
CCOC(=O)C(C)On1c(-c2ccccc2)nc2ccc([N+](=O)[O-])cc21 (stereo unspecified) | -5% | -0.5% | u | 0.3 | -0.5% | -2.0 | -19%
O=C(COC(=O)CCCN1C(=O)c2cccc3cccc(c23)C1=O)Nc1cccc(Br)c1 | 5% | u | u | 6.2 | 3.6% | 2.6 | 6%
COc1ccc(C(=O)NC2CCCc3c2cnn3-c2cc(F)cc(F)c2)c(OC)c1OC (stereo unspecified) | 12% | -0.6% | -14% | 2.1 | 4.8% | -0.9 | 4%
Cc1nc2ccccc2n1CC(=O)OCC(=O)NC1CC1 | -11%[15.4 µM] | x | 23% | -17 | 1.4% | 0.3 | 27%
CCCN1CCN(C(=O)c2ccc(CS(=O)c3ccc(F)cc3)o2)CC1 (stereo unspecified) | -13% | -0.2% | -7% | x | -0.1% | -1.7 | 15%
CCOc1ccc(CN2CCN(Cc3cc4ccccc4[nH]3)CC2CCO)cc1 (stereo unspecified) | -57%[inhibitor] | -19% | 9% | 0.3 | -0.1% | -1.1 | -13%
CC(=O)N1c2ccccc2N(Cc2ccc([N+](=O)[O-])cc2)C(=O)C1(C)C | -11% | 1.0% | -9% | 2.8 | 0.8% | -0.7 | 4%
NC(=S)C(c1ccccc1)c1ncc(C(F)(F)F)cc1Cl (stereo unspecified) | -1% | -4.0% | 7% | -2.0 | -2.5% | -2.2 | 9%
O=C(CC[C@H]1O[C@@H](n2ccc(=O)[nH]c2=O)[C@H](O)[C@@H]1O)NCc1ccco1 | x | 0.2% | x | x | -0.1% | -1.6 | x
CCC(C)NC(=O)c1cn(CC)c2cc(N3CCN(C(=O)c4ccco4)CC3)c(F)cc2c1=O (stereo unspecified) | 32% | 3.7% | u | x | 1.0% | u | 3%
Cc1cc([N+](=O)[O-])cc(C)c1OCC(=O)N/N=C/c1ccc(OC(=O)c2ccccc2)cc1 | -41%[inhibitor] | 0.5% | -7% | 1.9 | 20% | -2.1 | -25%
O=C(O)c1nc(-c2ccccc2)c(C(=O)NC2CC2)[nH]1 | x | 1.0% | x | x | 0.8% | -6.8 | x
Cc1ncsc1C(=O)Nc1nc2c(s1)CCCC2 | -35%[inhibitor] | -1.2% | -14% | 6.8 | 2.4% | -1.1 | -6%
Cc1cc(C)n(/N=C/c2ccccc2)c(=O)c1C#N | -9% | -2.8% | 4% | -0.3 | -0.4%[38.3 µM] | 0.7 | 11%
CC1(C)CC(=O)C(C2(O)C(=O)N(Cc3ccccc3)c3ccccc32)CO1 (stereo unspecified) | -53%[inhibitor] | 1.2% | 8% | 2.5 | 1.0% | -6.8 | 7%
O=C(/C=C/c1cccc(F)c1)NCc1ccc2c(c1)OCO2 | 2%[15.4 µM] | x | x | -3.8 | -0.7% | -4.4 | 6%
CCN(CC)C(=O)C(Oc1ccc(S(=O)(=O)N2CCCC2)cc1[N+](=O)[O-])c1ccccc1 (stereo unspecified) | -32%[inhibitor] | x | 2% | -0.7 | 0.4% | -2.1 | 14%
Cc1ccc2nc(NC(=O)CCNS(=O)(=O)c3ccc(Br)s3)sc2c1 | -3% | -1.3% | u | 1.1 | -5.9%[38.3 µM] | 2.8 | 2%
COc1ccc(-c2cn[nH]c2-c2ccc(OCc3ccccc3F)cc2O)cc1OC | -2% | u | u | 3.3 | -1.4% | 1.5 | 31%[activator]
COc1ccc(NC(=O)c2[nH]c(C)c(C(C)=O)c2C)cc1S(=O)(=O)Nc1ccc(Br)cc1 | 8% | x | -11% | 4.0 | 12% | 0.8 | 8%
COc1ccc(NC(=O)[C@@H]2CCCN2S(=O)(=O)c2ccccc2F)cc1S(=O)(=O)N1CCCCC1 | -1% | x | -22% | x | -1.2% | -3.1 | x
CCc1cc(CC)c(/C=N/NC(N)=O)c(CC)c1 | -5% | -2.6% | 2% | -1.7 | -0.5% | -4.5 | 9%
Cn1cc(CN2CCCC(C(=O)Nc3cccc(-n4cccn4)c3)C2)cn1 (stereo unspecified) | 5% | 1.7% | 1% | -1.0 | 0.2% | -3.5 | 21%
N#Cc1cc(C(=O)c2cc(Cl)ccc2O)cn(CC2CCCO2)c1=O (stereo unspecified) | -28% | 56% | u | 6.2 | 2.6% | -2.1 | 1%
O=C(CN1C(=O)NC(c2ccccc2)(c2ccccc2)C1=O)NC1CCS(=O)(=O)C1 (stereo unspecified) | 11% | 1.0% | 10% | x | 0.9% | 8.5 | x
Nc1nccnc1C(=O)OCC(=O)Nc1ccc2[nH]c(=O)[nH]c2c1 | -9% | 118% | -7% | x | 0.7% | -4.1 | x
CC1C(=O)Nc2ccc(S(=O)(=O)NCCc3ccc(Cl)cc3)cc2NC1=O (stereo unspecified) | -10% | -1.6% | 5% | 5.7 | -1.1% | -3.8 | 13%
CN1CCC(=NNC(=O)c2cn(-c3ccccc3)nc2-c2ccccc2)CC1 | 13%[15.4 µM] | x | 3% | -3.8 | -0.4% | -3.8 | 5%
CC(C)C(NC(=O)c1ccc(C(C)(C)C)cc1)C(=O)N1CCC(C(N)=O)CC1 (stereo unspecified) | 12% | u | 5% | x | -2.0% | -1.5 | x
COC(=O)c1ccc(C(=O)Nc2cc(Cl)ccc2Cl)cc1NC(=O)c1ccccc1C | -19% | u | 8% | 31[activator] | 9.9%[38.3 µM] | -1.4 | -4%
O=C(N[C@@H](Cc1c[nH]c2ccccc12)C(=O)O)OCC1c2ccccc2-c2ccccc21 | -24%[15.4 µM] | x | -2% | x | 2.1% | -6.9 | x
CCNC(=O)C1(C)CCN(C(=O)c2ccccc2)C1 (stereo unspecified) | x | 0.3% | x | x | 0.2% | -5.2 | x
COC(=O)[C@H](CCSC)NC(=O)Cn1cc(C)c(=O)[nH]c1=O | x | -1.0% | 12% | x | -1.0% | -4.8 | x
CC1CC(C)(C)CC2(C1)NC(=O)N(CC(=O)NCC(c1ccco1)N1CCCCC1)C2=O (stereo unspecified) | 2% | -0.7% | -3% | -0.9 | -1.1% | -1.1 | u
O=C(Nc1cccc(Cl)c1)NC1CC2CCC(C1)N2Cc1cccs1 (stereo unspecified) | -4% | 2.3% | 5% | 0.3 | 2.4% | 1.0 | 4%
CCOC(=O)C(C(=O)OCC)C1CCS(=O)(=O)C1 (stereo unspecified) | 4% | -2.4% | 5% | 3.7 | 0.9% | -0.3 | 16%
Cc1ccc2nc(SCC(=O)N3CCCC3)nc(=O)n2c1 | u | 25µM* | 15% | x | -1.5% | -1.0 | x
Cc1cccc(NS(=O)(=O)c2ccc(C(=O)NCCCN3CCOCC3)cc2)c1C | u | 0.5% | 3% | x | 3.9% | -3.7 | 8%
Cc1nc(-c2cn[nH]c2)c2cc(C)oc2n1 | -11% | 28µM* | 23% | 3.2 | -0.6% | -1.7 | 16%
COc1ccc(CCNC(=O)CSc2ccc(-c3cccs3)nn2)cc1 | 0%[15.4 µM] | x | 4% | -0.9 | 0.7% | -12 | 6%
O=C(C1CC1)N1CCN=C1SCc1cccc(C(F)(F)F)c1 | -2% | 1.2% | 0% | 14 | -0.7% | -2.9 | -5%

Reprinted at random: 2 compounds from above.
SMILES | gsp ag | ClpP mod | gsp antagonist | Menin MLL FP FL | PINK1 modulator | D2 ag | Sfp inh
O=C(Nc1cccc(Cl)c1)NC1CC2CCC(C1)N2Cc1cccs1 (stereo unspecified) | -4% | 2.3% | 5% | 0.3 | 2.4% | 1.0 | 4%
COc1ccc(CCNC(=O)CSc2ccc(-c3cccs3)nn2)cc1 | 0%[15.4 µM] | x | 4% | -0.9 | 0.7% | -12 | 6%
